# Source: PubChem BioAssay (National Center for Advancing Translational Sciences (NCATS))
# VACV mCherry inh: qHTS for Stage-Specific Inhibitors of Vaccinia Orthopoxvirus: mCherry Reporter Primary qHTS; Vaccinia virus mCherry reporter infection, fluorescence; about a quarter of the inactives have no number; Potency, µM (top dose mostly 36.5 µM), inactives show at the highest dose activity change, negative = inhibition, usual class: inhibitors; actives 0.63% (n = 310,000); AID 720579, 2013; active = well fitted inhibition curve with a large enough effect; inconclusive = small, poorly fitted or top-dose-only effect; inactive = no such curve, though single readings can be large or run the other way; tested in A549 cells; further: nearly all actives have a fitted effect of over 35% in size; inactives centre near -10
# Vaccinia Venus: qHTS for Stage-Specific Inhibitors of Vaccinia Orthopoxvirus: Venus Reporter Primary qHTS; Vaccinia virus Venus reporter expression, fluorescence; Potency, µM (series often up to 36.5 µM), inactives show at the top dose activity change, negative = inhibition, usual class: inhibitors; actives 0.46% (n = 330,000); AID 720580, 2013; active means well fitted inhibition curve with a large enough effect; inconclusive means small, poorly fitted or top-dose-only effect; inactive means no such curve, though single readings can be large or run the other way; tested in A549 cells; further: nearly all actives have a fitted effect of over 30% in size; inactives centre near -10
# Starred values were filed as active, the others as inactive; i = inactive; u = inconclusive; x = no result given; [ ] = remark or other dose. On the % scale 0 is the no-effect control and ±100 the full control effect; potency means the concentration at half of the fitted maximal effect.
item	canonical_smiles	VACV mCherry inh	Vaccinia Venus
1	COc1cccc(OCCCCN2CC(C)OC(C)C2)c1 (configuration not stated)	-15%	-20%
2	CCN(CC(=O)Nc1c(F)cccc1F)C(=O)CCN1C(=O)C2CCCCC2C1=O (configuration not stated)	-1%	-2%
3	Cc1cccc(N=C2NC(=O)/C(=C/c3cn(C)c4ccccc34)S2)c1	u	u
4	COc1ccc(-c2nc3ccccn3c2Cl)cc1	i	-21%
5	CSc1nc(N2CCN(c3ccccc3)CC2)cc(N2CCN(c3ccccc3)CC2)n1	-18%	-11%
6	CC(C)c1ccc(N(CC(=O)NCc2cccnc2)S(=O)(=O)c2ccccc2)cc1	i	-6%
7	CC(O)(c1ccc(F)c(F)c1)c1nc(-c2cccc(C#N)c2)cs1 (configuration not stated)	-8%	-3%
8	Cc1cc(Cl)ccc1-c1cc2nc(NCCCN(C)C)n(C)c(=O)c2s1	u	-24%
9	O=C(c1ccc(CS(=O)c2ccccc2Cl)o1)N1CCCCCC1 (configuration not stated)	2%[7.34 µM]	7%[7.34 µM]
10	Cc1ccc(NC(=O)c2ncn(CCCNCc3ccccc3)n2)cc1C	i	-23%
11	CCOc1ccc(NC(=S)NC(=O)c2c(Br)cnn2C)c([N+](=O)[O-])c1	2%	9%
12	O=C(Cn1cnc2c(nnn2Cc2ccccc2)c1=O)N1CCN(c2ccccc2)CC1	-8%	-11%
13	COC(=O)c1ccc2nc(C3CCCCC3)c(Cc3ccc(C)cc3)n2c1	7%	-2%
14	CCOC(=O)CSc1nc2c(sc3ccccc32)c(=O)n1Cc1ccc(OC)cc1	2%	0%
15	COC(=O)Cn1c(=O)c2c(nc3n2CCN3c2cccc(C)c2)n(C)c1=O	-3%	0%
16	O=C(NCc1ccccc1)C(c1ccc(-c2ccccc2)cc1)N1CCN(C(=O)C2CCCO2)CC1 (configuration not stated)	2.8µM*	u
17	CCOCCCn1c(SCC(=O)/C(C#N)=C(\C)N)nc2ccccc2c1=O	-13%	-12%
18	C=CCN1C(=O)/C(=C/C(=O)OC)S/C1=N\NC(=O)c1ccccc1	-17%	-11%
19	CCOc1ccc(-c2nc(S(=O)(=O)c3ccccc3)c(N3CCOCC3)o2)cc1	i	-16%
20	O=C(COC(=O)c1cc(S(=O)(=O)NCc2ccccc2)ccc1O)NCc1ccccc1	-14%	-12%

# In another format: results already given
# Every second line gives: VACV mCherry inh | Vaccinia Venus
7: CC(O)(c1ccc(F)c(F)c1)c1nc(-c2cccc(C#N)c2)cs1 (configuration not stated)
→ -8% | -3%
20: O=C(COC(=O)c1cc(S(=O)(=O)NCc2ccccc2)ccc1O)NCc1ccccc1
→ -14% | -12%
2: CCN(CC(=O)Nc1c(F)cccc1F)C(=O)CCN1C(=O)C2CCCCC2C1=O (configuration not stated)
→ -1% | -2%
16: O=C(NCc1ccccc1)C(c1ccc(-c2ccccc2)cc1)N1CCN(C(=O)C2CCCO2)CC1 (configuration not stated)
→ 2.8µM* | u
9: O=C(c1ccc(CS(=O)c2ccccc2Cl)o1)N1CCCCCC1 (configuration not stated)
→ 2%[7.34 µM] | 7%[7.34 µM]

# Next entries
item	canonical_smiles	VACV mCherry inh	Vaccinia Venus
21	CCOc1ccc(C(=O)CCC(=O)Nc2cc(C)ccn2)cc1	-13%	-5%
22	CC(C)c1ccc(NC2CCCN(C(=O)CN3CCCCC3=O)C2)cc1 (configuration not stated)	-4%	-7%
23	O=C(c1ccccc1)N1CCC2(CC1)OCCO2	-14%	-6%
24	O=C(c1ccccc1)C(Sc1ncn[nH]1)c1ccccc1 (configuration not stated)	x	-1%
25	CC1CCCN(Cc2cnc(Cl)s2)C1 (configuration not stated)	x	-12%
26	CC1C(=O)OC2C1CCC1(C)CCC(=O)C(C)C21 (configuration not stated)	-10%	0%
27	COc1ccccc1C(=O)NCCn1cc(SCC(=O)Nc2ccccc2F)c2ccccc21	-10%	-9%
28	O=C1OC(/C=C/c2ccccc2)=NC/1=C/C=C/c1ccccc1	i	-10%
29	COc1ccc(C(=O)N2CC(=O)Nc3ccc(C)cc3C2c2ccccc2)cc1OC (configuration not stated)	-11%	-8%
30	O=C1CC(c2ccccc2)(c2ccccc2)c2ccccc21	-19%	-6%
31	Fc1ccc(OCc2nc(-c3cccs3)no2)cc1	i	-12%
32	Cn1c(=NC(=O)CS(=O)(=O)c2ccccc2)sc2cc([N+](=O)[O-])ccc21	-4%	-11%
33	O=C(O)c1cc2ccccc2cn1	i	-23%
34	N=c1c(C(=O)NCc2ccco2)cc2c(=O)n3ccccc3nc2n1CCc1ccccc1	x	-1%
35	CCC(=O)N1c2ccccc2CC1C(=O)NCCc1ccccc1Cl (configuration not stated)	-14%	-16%
36	CCN(CC)CCNC(=O)C(C)c1nn(C)c(=O)c2ccccc12 (configuration not stated)	x	-6%
37	Cc1ccc(Oc2coc3cc(OCC(=O)NC4CCCCC4)ccc3c2=O)cc1	-9%	-6%
38	CC(O)C1CCC2C3CCC4CC(O)CCC4(C)C3C(=O)CC12C (configuration not stated)	-4%	6%
39	CCOC(=O)N1CCN(Cc2cn3ccccc3n2)CC1	-19%	-14%
40	CCCCNC(=O)CSc1nc2n[nH]c(C)c2c(=N)n1-c1ccccc1CC	-4%	-13%
41	CCn1c(=O)n(CC)c2cc(S(=O)(=O)N3CCC(c4ccccc4)CC3)ccc21	-21%	-19%
42	COc1ccc(C(C)(C)C)cc1NC(=O)COC(=O)c1cnc(C)cn1	-10%	-5%
43	Cc1ccc(S(=O)(=O)N(C)C)cc1NC(=O)[C@H](Cc1ccccc1)N1C(=O)c2ccccc2C1=O	-9%	-11%
44	CC(C)c1ccc(NC(=O)COc2nncc3ccccc23)cc1	-12%	-11%
45	CN(c1ccccc1C(=O)Nc1ccc(S(=O)(=O)N2CCOCC2)cc1)S(C)(=O)=O	-5%	-10%
46	CC(Sc1nnc(Cc2cccs2)n1C)C(=O)Nc1ccc(C(N)=O)cc1 (configuration not stated)	i	-12%
47	CC1(C)OC(=O)C(=Cc2ccc(-c3ccc(S(N)(=O)=O)cc3)o2)C(=O)O1	-13%	-2%
48	COc1ccccc1N(C)C(=O)c1cc(S(=O)(=O)N2CCCC2)cn1C	-6%	u
49	CN(C)/N=C/c1ccc([N+](=O)[O-])cc1[N+](=O)[O-]	-4%	-12%
50	COc1cccc(CN2CCCC(N3CCc4ccccc4C3)C2)c1O (configuration not stated)	-10%	-4%
51	O=C(CC1S/C(=N/N=C/c2c[nH]c3ccccc23)NC1=O)Nc1ccccc1 (configuration not stated)	1%	9%
52	NC(=O)C1CCN(C(=O)CCC(=O)N2CCOc3ccc(Cl)cc32)CC1	-3%	15%
53	CCn1c(=O)c2ccccc2n(CC(=O)NC2CCCCC2)c1=O	i	-22%
54	COc1cc(C(CC(=O)N2CCCC2)c2c(OC)cc(OC)c3c(-c4ccccc4)cc(=O)oc23)cc(OC)c1OC (configuration not stated)	-1%	-22%
55	CCOC(=O)c1c(C)[nH]c(C)c1S(=O)(=O)N(C)CC(=O)NCc1ccc(C)cc1	-16%	-6%
56	Cc1c(C(=O)Nc2ccccc2F)sc2ncnc(N(C)C3CCCCC3)c12	2%	-8%
57	CCCc1cc(=O)[nH]c(SCC(=O)Nc2cccc3ccccc23)n1	-29%	-2%
58	O=c1c2ccccc2[nH]c(=S)n1CCCN1CCN(C2CCCCC2)CC1	x	-6%
59	COc1cccc(NC(=O)Cn2c3ccc(F)cc3c3nc4n(c(=O)c32)CCCS4)c1	-5%	-7%
60	CN1C(=O)N(C)C(=O)C2(Cc3cc(NC(=O)c4ccccc4)ccc3N3CCCC32)C1=O (configuration not stated)	-5%	11%
61	O=C(O)Cn1nnc(-c2cccs2)n1	i	-11%
62	Cc1ccc(-c2nn(-c3ccccc3)cc2C(=O)NCC2CCCO2)cc1 (configuration not stated)	-11%	-13%
63	CCN(CC)c1ccc(NC(=S)Nc2ccc(F)cc2)cc1	-13%	-6%
64	Cc1ccc(-n2nc3c(=O)n(CCCC(=O)NC4CCC(C)CC4)nc(C)c3c2C)cc1 (configuration not stated)	u	u
65	Cc1cc(NC(=O)CSc2nc(-c3ccccc3Cl)nc3c2c(=O)n(C)c(=O)n3C)no1	-9%	7%
66	Cc1ccc(N=Nc2c(N)[nH]n3c(=O)cc(C)nc23)cc1	-15%	-15%
67	C=C1CCN([C@@H](Cc2ccccc2)C(=O)NCc2ccccc2)S(=O)(=O)c2ccccc21	-6%	-12%
68	COc1ccc(C(C(=O)NC2CCCCC2)N(C(=O)c2cccs2)c2ccc3c(c2)OCO3)cc1 (configuration not stated)	-25%	-16%
69	COc1ccccc1/C=C1\SC(=S)N(CCC(=O)Nc2cc(C)on2)C1=O	9%	-1%
70	CCOC(=O)N1CCN(Cc2nc(-c3ccc(Cl)cc3)no2)CC1	x	u
71	Cc1cc(C(=O)Cn2cnc3ccccc3c2=O)c(C)n1C1CC1	-12%	-6%
72	O=C(Nc1cc(S(=O)(=O)Nc2ccc(Cl)cc2)ccc1N1CCCCC1)c1ccc(F)cc1Cl	u	u
73	COc1ccc(S(=O)(=O)N(C(=O)c2ccncc2)c2ccc3oc(C)c(C(C)=O)c3c2)cc1	-27%[7.34 µM]	-22%[7.34 µM]
74	CCCS(=O)(=O)Nc1cc(-c2cn3ccc(C)cc3n2)ccc1C	-5%	-8%
75	O=C(CN1C(=O)c2ccccc2C1=O)OCC(=O)N1CCCCC1	-19%	-11%
76	Cc1c(Cl)cccc1NC(=O)CSc1nncn1-c1ccccn1	-5%	9%
77	COc1cccc(C(NC(C)=O)c2nc(-c3cccc(F)c3)cs2)c1 (configuration not stated)	-21%	-21%
78	CCOC(=O)c1ccc(N2C(=O)c3n[nH]c(-c4ccco4)c3C2c2ccc(OC)cc2OC)cc1 (configuration not stated)	-13%	-18%
79	CCCc1n[nH]c(=O)[nH]1	x	-15%
80	O=C(Nc1ccc2c(c1)OCO2)C1Cc2c(-c3ccncc3)ccnc2O1 (configuration not stated)	24%	4%

# 2 consecutive records out of the list so far, for reference:
item	canonical_smiles	VACV mCherry inh	Vaccinia Venus
76	Cc1c(Cl)cccc1NC(=O)CSc1nncn1-c1ccccn1	-5%	9%
77	COc1cccc(C(NC(C)=O)c2nc(-c3cccc(F)c3)cs2)c1 (configuration not stated)	-21%	-21%

# Next entries:
item	canonical_smiles	VACV mCherry inh	Vaccinia Venus
81	O=S(=O)(c1ccc(OCC(O)CN2CCN(c3ccccc3)CC2)cc1)N1CCOCC1 (configuration not stated)	-6%	-12%
82	CCOC(=O)c1cn[nH]c1NC(=S)Nc1ccc(Cl)cc1	u	-27%
83	C=C1C([C@@]2(C)C(OC(C)=O)CC(=O)O[C@@](C)(COC(C)=O)C2CC(=O)OC)C(OC=O)C(OC(=O)C(O)C(C)CC)[C@]2(C)C(c3ccoc3)CC(=O)C12O (some centres not stated)	2µM*	u
84	OCC[C@H]1C[C@H](O)[C@@H](O)[C@]2(Cc3ccccc3CO2)O1	i	0%
85	CCOC(=O)c1ccc(NC(=O)Cn2nnc(-c3ccccc3)n2)cc1	-7%	7%
86	CCOC(=O)c1ccc(NC(=O)CN2CCN(C(=O)C3CCCO3)CC2)cc1 (configuration not stated)	-4%	-1%
87	N#CC1C=Cc2c(ccc3ccccc23)N1C(=O)c1ccccc1 (configuration not stated)	u	u
88	Cc1ccc(NC(=O)CN(C)C(=O)Cc2ccccc2F)cc1	-15%	-3%
89	Cc1cc(NC(=O)c2cc(C(C)C)on2)nn1Cc1ccc(Cl)cc1	i	-14%
90	Cc1c(C(=O)NN2CCOCC2)cccc1[N+](=O)[O-]	-4%	0%
91	CCOc1cccc(C2c3c(oc4ccc(F)cc4c3=O)C(=O)N2c2cc(C)ccn2)c1 (configuration not stated)	-11%	-9%
92	O=C(CN1C(=O)/C(=C/c2ccccc2)SC1=S)NC1C=CS(=O)(=O)C1 (configuration not stated)	-26%	-1%
93	COc1cccc(-c2nc(SCC(=O)NC3CCCC3)c(-c3ccccc3)[nH]2)c1	-19%	-14%
94	Cc1ccc(C2(c3ccc(C)cc3)CC2C(=O)NC(C)C)cc1 (configuration not stated)	i	-7%
95	COc1cc(CCC(C)=O)ccc1OC(=O)c1c(F)cccc1Cl	0%[7.34 µM]	-2%[7.34 µM]
96	CCc1c2ccccc2nn1-c1ccccc1C(=O)C(C)=O	-30%	-16%
97	Cc1ccc(-c2c(C)n([O-])c3c([n+]2=O)CCCC3)o1	x	-6%
98	CCOC(=O)C1C(c2cccc([N+](=O)[O-])c2)C2C(=O)NN=C2CC1(C)O (configuration not stated)	-8%	-7%
99	CN(C(=O)CSc1nnc(-c2cccs2)o1)C1CCS(=O)(=O)C1 (configuration not stated)	i	-26%
100	COc1ccc(CN(Cc2ccccc2)C(C)=O)cc1COc1ccc(NC(C)=O)cc1	-1%	-27%
101	CS(=O)(=O)N(CC(=O)NC1CC1)c1cccc(F)c1	x	9%
102	CCN(C(=O)c1cc(S(=O)(=O)N2CCCC2)cn1C)c1ccc(OC)cc1	-6%	-9%
103	Cc1ccc(C(=O)Nc2ccsc2C(=O)O)cc1	u	u
104	CC(C)(C)NC(=S)N1CCC(C(=O)c2ccc(Cl)cc2)CC1	0%	-12%
105	CCN(CC)C(=S)SCC(=O)Nc1ccc(F)cc1	-18%	-22%
106	CCOc1ccc(CNC(=O)c2cc3ccccn3n2)cc1	9%	13%
107	O=C(Oc1coc(CSc2ncccn2)cc1=O)c1cccc([N+](=O)[O-])c1	u	9%
108	O=C(NC1CCS(=O)(=O)C1)c1cnccn1 (configuration not stated)	-6%	-7%
109	CCOC(=O)c1cnc(SC2CC(=O)N(c3cccc(OC)c3)C2=O)nc1N (configuration not stated)	14%	19%
110	Cc1ccsc1/C=N/Nc1ncnc2nc[nH]c12	-17%	-26%
